Compound activity as filed in PubChem BioAssay.
PrP 5UTR inh: inhibition of PrP 5' UTR reporter expression. 340,000 tested, 0.35% active. inhibition, % (concentration not given with the values). cell-based PrP 5' UTR mRNA reporter, plate reader;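 active = every replicate at 50% or more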;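 also: 0 = median of the neutral control wells; tested in H4 reporter cells; numbers are from one replicate; inactives centre near -14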
RN4220 kill: S. aureus RN4220 growth inhibition. OD600, 16 h. inhibition, % (test concentration not listed). 330,000 tested, 0.33% active. AID 1259311;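 active = z-score of -3 or lower and OD600 up to 0.18 on both plates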;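 also: plate controls were untreated cells for no effect and reference antibiotic for full effect; stock transfer was 100 nL into about 80 µL; one replicate is shown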
BJeLR lethal: kills HRASV12-expressing BJeLR cells. 300,000 tested, 0.17% active. BJeLR (HRASV12) viability, CellTiter-Glo ATP luminescence, 48 h; reference of the scale not given here. inhibition, % (test concentration not listed);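 active = replicate mean above 50%; inconclusive = above 50% but judged a plate artefact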;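 also: 50 nL library stock added to about 25 µL; numbers are from one replicate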
ugtP null kill: compounds lethal to S. aureus RN4220 ugtP deletion mutant. OD600 growth, 16 h; some inactives read as strong as hits. growth inhibition, % (test concentration not listed). 330,000 tested, 0.54% active. AID 1259309;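 active = z-score under -3 and OD600 up to 0.15 on both plates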;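 also: plate controls were untreated wells for no effect and antibiotic for full effect; wells of about 80 µL received 100 nL stock; the first replicate is given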
Mtb hypoxia rep: Mtb hypoxia fluorescent reporter inhibition | M. tuberculosis hypoxia-regulated fluorescent reporter, fluorescence | fluorescence inhibition, % (test concentration not listed) | 300,000 tested, 0.1% active | AID 1159583;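 active = 35 to 45% if threefold the growth effect, above 45% if 1.5-fold the growth effect; inactive = the rest, general growth blockers included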;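 also: wells of about 50 µL received 100 nL stock; 0% = vehicle wells and 100% = reference inhibitor wells; whole bacteria with a GFP reporter of the hypoxia response; strong numbers were not always called active; many hits fall short of the cut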
Autofluor counter: counter-screen for toxin protease inhibitors: compound fluorescence | compound autofluorescence counterscreen, microsphere flow cytometry; active compounds read high | fluorescence intensity (concentration not given with the values) | 360,000 tested, 3.1% active;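 active = at least 3 SD above the mean of all compounds, about 16000 in these data; inconclusive = too few beads counted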;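 also: 100 nL of 1 mM stock went into each well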
Mtb hypoxia rep growth: recorded beside Mtb hypoxia rep, whose call it bears; growth inhibition, %; measured here: M. tuberculosis growth (absorbance);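 0% = vehicle and 100% = reference antibiotic; read after six days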
* hit, by the source's call; u = inconclusive; x = no result given.

SMILES	PrP 5UTR inh	RN4220 kill	BJeLR lethal	ugtP null kill	Mtb hypoxia rep	Mtb hypoxia rep growth	Autofluor counter
NS(=O)(=O)c1ccc(CCNC(=S)NC(=O)c2ccccc2Br)cc1	-1	1.4	x	-1	7	8	4532
COc1cc(C2Nc3ccccc3NC3=C2C(=O)CC(c2ccc(OC)c(OC)c2)C3)ccc1O (stereo unspecified)	-21	0.5	-3	3	-14	-3	4929
Cc1ccc(C=NNC(=O)c2nc3nc(C)cc(C)n3n2)cc1	x	-0.2	x	3	11	-3	x
O=C(O)c1ccccc1NCc1cccnc1	x	3.2	5	8	7	5	3663
COC(=O)C(CCCN1C(=O)c2ccccc2C1=O)(NC(C)=O)c1nnn(C)n1 (stereo unspecified)	-15	4.5	-4	3	4	0	4408
O=C(CCC(=O)c1ccc(F)cc1)Nc1cccc(C(F)(F)F)c1	-19	-0.5	4	-9	-6	11	2834
O=C(C1CCN(CC2CCCCC2)CC1)N1CCCC1	-11	0.4	-3	3	6	0	4347
O=C(Cn1cnc(S(=O)(=O)N2CCCC2)c1)Nc1cccc(F)c1	-19	2.7	-2	6	-2	1	5764
O=C(NCc1ccccc1)c1cc2ccccc2oc1=O	-28	4.5	12	-1	16	4	3316
COc1ccccc1N1CCN(C(=O)c2ccccc2NC(=O)C2CCCCC2C(=O)O)CC1 (stereo unspecified)	-14	2.6	-6	1	5	1	2031
CC1=C(C(=O)NC2CCCc3c2cnn3-c2cccc(C)c2C)OCCO1 (stereo unspecified)	1	0.9	7	4	4	8	u
CCN(CC)S(=O)(=O)c1ccc(N2CCN(C)CC2)c(NC(=O)COc2ccc(F)cc2Cl)c1	5	8.1	7	3	3	0	6234
CC(=O)Nc1ccc(S(=O)(=O)Nc2cccc(C(=O)NC(C)(C)C)c2)cc1	-22	-3.8	0	1	x	x	2432
COc1ccc(N(C(C)C(=O)Nc2ccc(S(=O)(=O)N3CCOCC3)cc2)S(C)(=O)=O)cc1 (stereo unspecified)	-4	7.4	2	-1	-3	4	4770
CC(CC(=O)Nc1cccnc1)=NNC(=O)C(=O)NC(C)C	x	2.4	x	4	-10	-15	x
CC1CCCC(NC(=O)COC(=O)[C@@H](NC(=O)c2ccco2)C(C)C)C1C (stereo partly specified)	-17	-1.3	-5	5	7	6	2307
FC(F)(F)c1nnc2sc(-c3ccncc3)nn12	-25	6.8	-2	-8	1	7	19007*
O=C(c1ccc(F)cc1)C1CCN(C(=S)NCC2CCCO2)CC1 (stereo unspecified)	-13	1.4	3	4	8	4	4632
NC1=NC2(CCC(c3ccccc3)CC2)n2c(nc3ccccc32)N1 (stereo unspecified)	-20	19	1	-25	-8	7	3238
O=C(CSc1nnnn1C1CCCC1)N1CCCCC1	-34	1.5	-17	4	8	5	3634
CC(CC(=O)Nc1ccc(Cl)c(Cl)c1)=NNC(=O)Cc1ccccc1	x	7.0	x	-10	14	3	x
COc1ccc(CNC(=O)C2CCN(C(=O)N(C)C)CC2)c(OC)c1	-16	2.4	-5	3	4	4	16860*
CC1CCCCN1CCNC(=O)c1cnn2ccccc12 (stereo unspecified)	-12	2.6	-2	7	-5	1	6207
CN(NC1OC(=O)c2ccccc21)c1ccccc1[N+](=O)[O-] (stereo unspecified)	-43	8.4	11	12	13	11	6420
Cc1ccc(NC(=O)CSc2nnc(CN3CCOCC3)n2C)cc1C	-16	7.1	4	-2	11	-1	2559

Continued, starting with the last four of the part before.
SMILES	PrP 5UTR inh	RN4220 kill	BJeLR lethal	ugtP null kill	Mtb hypoxia rep	Mtb hypoxia rep growth	Autofluor counter
COc1ccc(CNC(=O)C2CCN(C(=O)N(C)C)CC2)c(OC)c1	-16	2.4	-5	3	4	4	16860*
CC1CCCCN1CCNC(=O)c1cnn2ccccc12 (stereo unspecified)	-12	2.6	-2	7	-5	1	6207
CN(NC1OC(=O)c2ccccc21)c1ccccc1[N+](=O)[O-] (stereo unspecified)	-43	8.4	11	12	13	11	6420
Cc1ccc(NC(=O)CSc2nnc(CN3CCOCC3)n2C)cc1C	-16	7.1	4	-2	11	-1	2559
Cc1ccc(S(=O)(=O)N2CCC(C)CC2)cc1	-45	2.0	-8	5	23	10	4330
Cc1cccc(OCC(=O)NCc2nnc3ccc(C(F)(F)F)cn23)c1C	1	5.1	x	-2	3	7	4660
CCCCOP(=O)(OCCCC)C(Nc1ccccc1)c1ccc2c(c1)OCO2 (stereo unspecified)	-11	-5.6	-7	-14	6	2	7889
COc1ccc(S(=O)(=O)Nc2ccccc2Cl)cc1NC(C)=O	-16	7.1	7	1	4	2	4370
N=Cc1c(O)n(-c2cccc(Cl)c2)c(=O)[nH]c1=O	-10	5.0	0	1	10	10	23754*
CCOc1ncccc1C(=O)OCC(=O)c1cccc(Br)c1	-10	6.9	-3	-5	13	12	2651
CCN(CC)S(=O)(=O)c1ccc(OC)c(NC(=O)C2CC(=O)N(c3ccc(C)cc3)C2)c1 (stereo unspecified)	-6	-1.3	-7	-2	3	3	4934
O=C1CSC(c2cccnc2)N1c1cccc(Cl)c1 (stereo unspecified)	-9	6.7	-3	8	18	3	5260
CCOc1ccc(CNCCN2CCCC2)cc1	-23	1.0	12	11	-5	-1	3692
CC1CCC(NC(=O)CC(C)(C)Cc2nc3ccccc3c(=O)[nH]2)CC1 (stereo unspecified)	-11	9.3	7	-3	10	12	5748
CC1=C(C(=O)Nc2ccc(Cl)cc2)C(c2cccs2)n2nnnc2N1 (stereo unspecified)	3	1.7	-1	10	6	10	23559*
COc1ccc(Br)cc1/C(C)=N/NC1=NCCN1	-19	x	7	x	x	x	2684
O=C(CSc1nnc(-c2cccs2)o1)N1CCc2ccccc21	-18	-0.1	0	-28	-1	-3	3647
CN(C)C(=O)Oc1ccc(C(=O)c2ccccc2)cc1	-23	5.5	-12	11	4	-8	5842
Cc1cccc(CSc2nc3c(c(=O)[nH]2)CCCC3)c1	-32	6.0	-2	-1	18	14	10080
COC(=O)C1=C(C)N(Cc2ccccc2)C(=O)NC1CCc1ccccc1 (stereo unspecified)	x	8.0	x	-1	11	5	x
O=C(NC(=S)Nc1ccccc1Cl)c1cnn2c(C(F)(F)F)cc(C(F)(F)F)nc12	x	1.9	-2	5	22	23	x
O=C(CSc1ncccn1)NCC1CCCO1 (stereo unspecified)	9	1.3	5	2	5	4	u
COC(=O)CC1C(=O)NCCN1C(=O)Nc1ccc(Cl)c(Cl)c1 (stereo unspecified)	-23	0.9	4	3	1	8	3241
O=C(COC(=O)c1ccc(F)cc1Cl)NC(=O)NC1CCCC1	-21	-1.9	x	2	15	16	7782
O=[N+]([O-])c1ccccc1NCCOc1ccccc1	-141	6.2	-1	-3	7	4	7612
Cc1ccc(-n2nc3c(c2NC(=O)/C=C\c2ccc4c(c2)OCO4)CSC3)c(C)c1	-4	-3.1	7	-18	-3	5	6324
CN(CC(=O)Nc1ccc(Cl)cc1)C(=O)c1sccc1-c1ccccc1	3	1.6	x	-1	6	4	3901
COC(=O)c1ccc(C(NC(=O)OCc2ccccc2)C(C)=CC(C)C(=O)NCc2ccc(-c3ccccc3)cc2)cc1 (stereo unspecified)	x	1.0	x	5	3	11	x
CC1CCCN(S(=O)(=O)c2cccc3nonc23)C1 (stereo unspecified)	-43	3.2	-2	2	3	14	5842

Entries shown so far that contain an NH in an aromatic ring:
SMILES	PrP 5UTR inh	RN4220 kill	BJeLR lethal	ugtP null kill	Mtb hypoxia rep	Mtb hypoxia rep growth	Autofluor counter
N=Cc1c(O)n(-c2cccc(Cl)c2)c(=O)[nH]c1=O	-10	5.0	0	1	10	10	23754*
CC1CCC(NC(=O)CC(C)(C)Cc2nc3ccccc3c(=O)[nH]2)CC1 (stereo unspecified)	-11	9.3	7	-3	10	12	5748
Cc1cccc(CSc2nc3c(c(=O)[nH]2)CCCC3)c1	-32	6.0	-2	-1	18	14	10080

Next structures:
SMILES	PrP 5UTR inh	RN4220 kill	BJeLR lethal	ugtP null kill	Mtb hypoxia rep	Mtb hypoxia rep growth	Autofluor counter
NC(=O)C1CCN(c2nc(C3CC3)nc3c2nnn3Cc2ccccc2)CC1	-10	-0.3	1	17	1	5	8526
CC(C)CN(C(=O)COC(=O)Cc1cccc2ccccc12)c1c(N)n(Cc2ccccc2)c(=O)[nH]c1=O	-9	3.5	-11	-3	2	-6	u
Nc1c(C(=O)Nc2ccc(F)cc2)nnn1-c1cccc(C(F)(F)F)c1	-8	0.9	19	3	14	12	3342
Cc1ccc(C)c(NCC(=O)NNC(=S)Nc2ccccc2)c1	-28	1.7	0	-1	-1	1	4690
CCCSc1ccc(-c2nn(-c3ccccc3)cc2/C=C(/C#N)C(=O)N2CCOCC2)cc1	-18	9.8	-15	-8	7	-4	2055
CC(=O)Nc1ncc2c(n1)CC(c1ccco1)CC2=O (stereo unspecified)	-18	2.2	-2	6	x	x	3931
O=C1CSC(=Nc2ccccn2)N1C1CCCCC1	x	-6.3	x	-5	6	14	x
O=C(NNC(=O)c1ccc(NC(=O)C2CC2)cc1)c1ccc(F)cc1	-2	2.7	x	3	9	14	6513
Fc1ccc2c(c1)C(c1ccncc1)=NNC(c1ccccc1)=N2	-19	3.6	-1	10	9	5	2119
Cc1ccc(C(=O)CSc2nnc3n2CCCCC3)s1	-22	4.9	x	3	8	9	6263
O=C(NC1CCCCC1)c1ccc(Cl)c(NC(=O)c2ccccc2F)c1	x	5.4	-4	-1	8	9	x
NC(=O)COc1ccccc1C1=NO[C@@](CC(=O)O)(C(=O)Nc2ccc3c(c2)OCCO3)C1	-6	2.4	1	-3	-5	-2	3126
CCc1noc(C)c1C(=O)Nc1nc(-c2ccc(OC)cc2OC)cs1	-24	23	-3	-2	-6	8	x
O=C(O)CCC(=O)OCC1CCCCC1	-12	3.5	8	6	4	10	19321*
CC(=O)Nc1cccc(/C(C)=N/NC(=S)NC(C)C)c1	-26	x	3	x	x	x	3130
O=C(CC1N=C2c3ccccc3N=C(SCc3ccccc3Cl)N2C1=O)NCc1ccco1 (stereo unspecified)	-3	-6.9	-9	40	-3	-3	u
COc1ccc(C2CC(=O)C=C(c3ccc4c(c3)OCO4)C2)cc1OC (stereo unspecified)	x	7.1	x	8	1	-2	x
NC(=O)CCn1c(=O)oc2ccccc21	-15	-0.1	3	2	0	-1	9334
CCn1cnc2cc(NCc3ccncc3)ccc21	-36	2.4	3	3	12	7	8026
NC(=O)CSc1nnc(Cn2c(=O)sc3ccccc32)n1CCc1ccccc1	-27	2.8	0	2	x	x	5997
O=C(C(=O)c1ccc(O)cc1)c1ccccc1	-91	3.3	8	8	10	3	3174
Cc1nc2sc(C(c3ccccc3)N3CCC(O)CC3)c(O)n2n1 (stereo unspecified)	-7	7.1	-4	13	x	x	5292
COc1ccc(OC)c(NC(=O)c2ccccc2N(C)S(=O)(=O)c2ccc(C)cc2)c1	-16	6.4	-13	6	20	1	3003
O=c1cc(-c2ccc(Cl)cc2)[nH][nH]1	-30	2.4	-1	0	3	17	5781
COc1ccc(C)cc1NC(=O)C1COc2ccccc2O1 (stereo unspecified)	-43	5.6	8	-3	1	2	4488
Other results.
SMILES	PrP 5UTR inh	RN4220 kill	BJeLR lethal	ugtP null kill	Mtb hypoxia rep	Mtb hypoxia rep growth	Autofluor counter
CCOc1ccc(NC(=O)c2ccccc2OCC(=O)c2ccc(C)cc2)cc1	-41	1.3	7	-13	4	16	23534*
COc1ccccc1S(=O)(=O)NCc1ccc(C(=O)NC2CCC(O)CC2)cc1 (stereo unspecified)	-12	1.2	x	5	-5	-3	2843
Cc1ccc(S(=O)(=O)NCC(=O)N2CCN(c3ccc(F)cc3)CC2)cc1	-7	0.4	-4	1	0	-1	6298
O=C(O)COc1ccccc1C=NNC(=O)CSc1nc2ccccc2c(=O)n1-c1ccccc1	x	1.2	x	7	3	-1	x
CCCC(C(=O)N(C)CC(=O)Nc1ccc(N2CCOCC2)cc1)c1ccccc1 (stereo unspecified)	-14	1.4	-2	4	4	3	5573
CCOC(=O)c1ccccc1NC(=O)CSc1ncc(C(=O)OCC)c(N)n1	-16	-6.4	13	-3	6	-1	9811
COc1ccc(Br)cc1CNCCc1cccc(Cl)c1	-15	-1.4	2	0	12	4	4320
COCCn1nnnc1C(c1ccc(Cl)cc1)N1CCSCC1 (stereo unspecified)	-22	1.6	-11	-2	6	4	9225
O=C(CN1C(=O)COc2ccc(Cl)cc21)NCC1CCCO1 (stereo unspecified)	-2	0.6	5	2	-11	-1	5871
O=C(Nc1ncccn1)C12CC3CC(CC(C3)C1)C2	x	2.4	-10	1	8	1	6566
COc1ccccc1-c1nc(SCC(=O)Nc2cc(C)on2)c2c(=O)n(C)c(=O)n(C)c2n1	0	-0.7	-1	1	-19	-11	5457

Compounds were not picked by outcome; overall some 3.9% were active at least once.
